FGF22 binding – binders of human FGF22 protein, primary screen, FGF22 synaptogenesis inhibitor project, biophysical, thermal shift, single point; AID 651658, 2012; calls only at 9.99 µM; 340,000 tested, 1.5% active; Fibroblast growth factor 22 (Homo sapiens), Q9HCT0; recombinant FGF22 thermal shift, SYPRO orange fluorescence; percent of sucrose octasulfate shift, DMSO zero;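 active = melting point raised past a set limit in the mean and every replicate; inconclusive = no clear call; three in four hits are not shown here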
UCH37 DUB inh – inhibitors of human UCH37 deubiquitinase, primary screen, biochemical, Ub-AMC cleavage, fluorescence; Ubiquitin carboxyl-terminal hydrolase isozyme L5 (Homo sapiens), Q9Y5K5; purified proteasome/UCH37; inhibition, % (concentration not given with the values); 330,000 tested, 0.33% active; AID 588478, 2011;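 active = mean of two replicates above 20%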;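 note: 0% = compound-free wells with enzyme and 100% = wells lacking proteasome; stock transfer was 100 nL into about 20 µL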
Target sequence (Q9Y5K5 whole entry, looked up): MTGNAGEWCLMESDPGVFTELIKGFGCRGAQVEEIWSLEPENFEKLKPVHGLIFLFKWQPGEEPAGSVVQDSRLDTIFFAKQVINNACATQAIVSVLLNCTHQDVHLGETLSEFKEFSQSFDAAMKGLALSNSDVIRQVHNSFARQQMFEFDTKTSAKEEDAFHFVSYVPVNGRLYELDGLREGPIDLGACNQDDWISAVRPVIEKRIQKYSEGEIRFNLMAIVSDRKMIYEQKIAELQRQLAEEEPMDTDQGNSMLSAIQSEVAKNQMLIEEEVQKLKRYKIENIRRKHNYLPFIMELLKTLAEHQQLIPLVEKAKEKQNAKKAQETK
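Signal – fluorescence, ex 355 nm, em 460 nm · System – Proteasome-bound UCH37 · Input – 0.15 nM proteasome as dispensed · Timing – 30 min preincubation with enzyme, 25 min cleavage at room temperature · Read-out basis – percent inhibition of cleavage signal versus uninhibited and no-proteasome wells · Medium – Tris-HCl pH 7.4 with ATP-MgCl2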
HNF4A DNA FP – change in binding of human HNF4A to DNA, primary screen, biochemical, fluorescence polarization, FITC-DNA. Hepatocyte nuclear factor 4-alpha (Homo sapiens), P41235. 1 h. activity change, % at 10 µM. 360,000 tested, 0.3% active. AID 1224865, 2016; in the data active = activity change above about 30%, passing the limit was not always enough;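 note: controls were the assay level and a saturating level of protein; the project sought stronger binding though the title names inhibitors; some compounds called inactive have numbers as strong as hits; positive values seem to mean higher polarization but the record does not say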
Ecoli growth – E. coli growth inhibition, primary screen, OD600 | Escherichia coli growth, 23 h; hits give low values | AID 1053175, 2014 | 330,000 tested, 0.21% active | OD600 absorbance (concentration not given with the values);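 active = OD600 absorbance below the run mean of sample wells minus 3.6 SD, in any replicate, cut at about 0.56 in these data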;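 note: stock transfer was 300 nL into about 60 µL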
MLL AF4-AF9 inh – inhibitors of AF4 peptide binding to AF9, primary screen, biochemical, AlphaScreen, biotin-AF4 peptide, FLAG-AF9, single point. Protein AF-9 (Homo sapiens), P42568. inhibition, % at 10 µM. 350,000 tested, 0.47% active;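 active = every replicate reaching a set inhibition limit, whatever the replicate mean, cut at about 25% in these data; inconclusive = mean inhibition reaches that limit but some replicates miss it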;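 note: 0% = plate neutral control median and 100% = total signal loss; the record names both 10 and 1 µM as test concentration; the first replicate is given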
Target sequence (P42568 whole entry, looked up): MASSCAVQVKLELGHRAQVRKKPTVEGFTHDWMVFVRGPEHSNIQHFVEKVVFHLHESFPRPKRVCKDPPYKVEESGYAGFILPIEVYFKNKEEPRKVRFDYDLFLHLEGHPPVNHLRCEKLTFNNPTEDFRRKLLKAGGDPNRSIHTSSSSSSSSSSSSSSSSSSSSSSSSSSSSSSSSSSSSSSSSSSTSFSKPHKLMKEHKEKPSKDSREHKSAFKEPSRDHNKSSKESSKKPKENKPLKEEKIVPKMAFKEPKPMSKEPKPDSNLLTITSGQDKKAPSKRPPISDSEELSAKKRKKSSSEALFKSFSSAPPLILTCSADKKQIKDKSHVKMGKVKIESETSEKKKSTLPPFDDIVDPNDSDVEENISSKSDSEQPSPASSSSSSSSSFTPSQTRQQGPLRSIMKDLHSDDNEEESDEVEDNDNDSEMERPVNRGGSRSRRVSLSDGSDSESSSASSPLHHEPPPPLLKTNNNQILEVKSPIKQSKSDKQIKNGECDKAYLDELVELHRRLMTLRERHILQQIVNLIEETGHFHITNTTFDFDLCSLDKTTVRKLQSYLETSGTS
RanGTP-Impb inh – inhibitors of RanGTP-importin-beta interaction, primary screen, biochemical, FRET, CFP-Ran, YFP-importin-beta, homogeneous. inhibition, % (test concentration not listed). 300,000 tested, 1.1% active. cell-free CFP-Ran/YFP-importin-beta FRET ratio;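 active = most replicates above 15%; inconclusive = exactly half above 15%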;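 note: 0% = DMSO wells and 100% = Ran loaded with GDP instead of GTP; wells of about 40 µL received 100 nL stock; the first replicate is given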
Vif TR-FRET – inhibitors of Vif binding to APOBEC3G peptide, primary screen, biochemical, TR-FRET, GST-Vif 1-94, biotin-A3G peptide, dose response retest (AID 1117319). Virion infectivity factor (Human immunodeficiency virus type 1 group M subtype B (isolate …. TR-FRET GST-Vif / biotin-A3G peptide binding; higher % means a stronger effect; test concentration not given here; strong numbers were not always called active. inhibition, %; hits with a dose series show IC50 in µM. 260,000 tested, 0.57% active;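 active = above the screen mean plus three standard deviations and confirmed in dose response; inconclusive = results disagree or hit not tested in dose response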;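 note: Vif residues 1-94 fused to GST binding biotinylated APOBEC3G peptide 110-148; 0% = full assay without inhibitor and 100% = GST in place of GST-Vif; retest series ran down from 100 µM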
* hit, by the source's call; i = inactive; ? = inconclusive; · = no result given; + = active, no number.

mol,FGF22 binding,UCH37 DUB inh,HNF4A DNA FP,Ecoli growth,MLL AF4-AF9 inh,RanGTP-Impb inh,Vif TR-FRET
CCCCOc1ccc(/C(N)=N/O)cc1,·,1.2,0.9,0.67,·,?,9%
Cn1c(C2=C(O)CN(Cc3ccccc3)C2=N)[n+](C)c2ccccc21,i,0.9,0.4,0.68,-5.7,·,4%
C/C(=N\NC(=O)c1cccc(S(=O)(=O)N2CCOCC2)c1)c1ccc(OC(F)F)cc1,+,·,6.5,·,4.5,-0.6,-3%
Cc1ccccc1-n1c(SCC(=O)N/N=C/c2c(C)nn(-c3ccccc3)c2C)nc2ccccc2c1=O,i,·,-6.3,·,2.4,1.3,·
COc1ccc(NC(=O)Cc2c[nH]c3ccccc23)cc1S(=O)(=O)N1CCOCC1,·,4.1,-0.2,0.7,3.1,-1.2,-3%
CCN1C(=O)/C(=C\c2ccc3c(c2)OCO3)C(C(=O)OC)=C1C,·,2.7,-12,0.68,·,-1.2,7%
COC(=O)c1c(NC(=O)c2cccc(S(=O)(=O)N3CCN(C)CC3)c2)sc(C)c1C,i,0.1,-2.4,0.64,-0.5,-0.5,3%
COc1cccc(C(C(=O)NC(C)(C)C)N(CCc2ccccc2)C(=O)CCC(=O)Nc2cc(C)on2)c1OC (stereo not drawn),i,-0.3,-0.8,0.64,2.2,-1.3,·
O=C(NCc1nnc2c(C(F)(F)F)cc(Cl)cn12)C1CCCC1,i,5.8,-3.7,0.69,-5.5,3.5,·
COc1cccc(C(=O)Nc2ccc(C(=O)NCC(C)C)cc2)c1,i,1.0,2.7,0.72,-2.7,-3.1,-10%
CC(C)C(NC(=O)c1ccccc1NC(=O)c1ccccc1)C(=O)NNC(=O)c1ccncc1 (stereo not drawn),i,-5.6,-4.5,0.64,-7.3,-0.1,-2%
CC(C)(C)C1CCc2onc(C(=O)Nc3cnn(Cc4ccc(F)cc4)c3)c2C1 (stereo not drawn),·,-22,-0.4,0.76,·,3.9,-3%
CC1CCN(C(=O)CSc2nc(N)c3c4c(sc3n2)CN(C)CC4)CC1,·,-32,0.2,0.79,·,7.5,-9%
COC(=O)CC1C(=O)NCCN1C(=S)NC(=O)C(c1ccccc1)c1ccccc1 (stereo not drawn),i,2.2,2.6,0.69,-2.3,-3.6,8%
COc1ccccc1NC(=O)COC(=O)c1c[nH]c(=O)[nH]c1=O,i,2.9,1.1,0.67,1.1,4.0,2%
O=C(c1ccc(S(=O)(=O)Nc2ccccc2)cc1)N1CCCC1,i,1.3,1.6,0.69,0.3,1.5,2%
COc1ccc(Cl)c2sc(N(CCN(C)C)C(=O)C3=COCCO3)nc12,i,·,5.4,·,1.4,·,·
Cc1cc(C(=O)N/N=C/c2ccc3ccccc3c2)n[nH]1,i,·,3.9,·,-1.8,·,·
O=C(O)c1c2c(nc3ccc(S(=O)(=O)N4CCC(C(=O)NCc5ccccc5)CC4)cc13)CCCC2,i,·,-3.1,·,-1.9,·,4%
C=CCNc1nc(NC(C)(C)CO)nc(OC)n1,·,4.0,0.2,0.7,·,6.8,·
c1csc(-c2nnc(N3CCCCCC3)c3ccccc23)c1,i,3.7,3.1,0.68,8.8,·,6%
O=C(CNC(=O)[C@@H]1Cc2ccccc2CN1)Nc1ccc2c(c1)OCCO2,i,-0.3,-1.3,0.67,0.7,2.3,-2%
O=C(CNC(=S)N(CCCN1CCOCC1)Cc1cccs1)N1CCOCC1,·,2.0,3.5,0.7,·,-0.4,·
CC(C)NC(=O)Nc1cccc2c1O[C@H](CN(C)S(=O)(=O)c1cccs1)[C@@H](C)CN([C@H](C)CO)C2=O,i,10.0,-0.2,0.67,0.0,·,8%

Reprinted at random: 3 compounds from above.
mol,FGF22 binding,UCH37 DUB inh,HNF4A DNA FP,Ecoli growth,MLL AF4-AF9 inh,RanGTP-Impb inh,Vif TR-FRET
O=C(CNC(=S)N(CCCN1CCOCC1)Cc1cccs1)N1CCOCC1,·,2.0,3.5,0.7,·,-0.4,·
c1csc(-c2nnc(N3CCCCCC3)c3ccccc23)c1,i,3.7,3.1,0.68,8.8,·,6%
C=CCNc1nc(NC(C)(C)CO)nc(OC)n1,·,4.0,0.2,0.7,·,6.8,·

(continued)
mol,FGF22 binding,UCH37 DUB inh,HNF4A DNA FP,Ecoli growth,MLL AF4-AF9 inh,RanGTP-Impb inh,Vif TR-FRET
CCCCNC(=O)OC(C)CNC(=O)OC (stereo not drawn),·,-1.1,0.3,0.73,·,5.0,7%
CCOC(=O)CSc1cc(CS(=O)c2ccc(Cl)cc2)nc(-c2ccccc2)n1 (stereo not drawn),·,-0.2,-2.0,0.71,·,3.3,0%
Cc1cccc(C)c1NC1=NC(C)(C)N=C(N)N1,·,3.2,1.1,0.7,·,1.1,-5%
CCN(C(=O)COC(=O)c1oc2ccc(OC)cc2c1C)C1CCCCC1,i,-15,0.9,0.69,-40,2.0,-6%
O=C(C1c2ccccc2C(=O)N2CCc3ccccc3C12)N1CCN(Cc2ccccc2)CC1 (stereo not drawn),·,-1.4,2.5,0.73,·,2.7,1%
COc1cccc(C(=O)n2c(SC)nc3cc4c(cc32)OCCO4)c1,i,2.4,2.4,0.7,-0.6,1.7,5%
Cc1ccc(C(=O)OCc2nc3ccsc3c(=O)[nH]2)o1,i,1.4,-0.1,0.7,-1.6,1.0,9%
CCC(C(=O)NCCc1c[nH]c2ccc(C)cc12)c1ccccc1 (stereo not drawn),i,3.4,-1.3,0.69,3.1,6.0,-8%
O=C(NCc1cccs1)c1ccc(Cl)s1,·,2.1,-1.2,0.67,·,5.4,-2%
Cc1cccnc1NC(=O)c1ccc(S(=O)(=O)N2CCCCC2)cc1,i,-1.5,0.1,0.69,-3.7,·,-1%
C=CCN1CN(Cc2ccco2)CNC1=S,·,-1.0,3.5,0.7,·,0.1,2%
C=CCN=C(CC)C1=C(O)CCCC1=O,·,0.4,1.8,0.7,·,4.4,-4%
O=C(NC(=S)NCc1nc2ccccc2[nH]1)c1ccccc1F,·,-0.2,2.6,0.65,11,0.3,-3%
N#CCCCSc1nnc(-c2ccc(Cl)cc2)n1-c1ccccc1,i,0.0,-1.5,0.71,-2.0,?,i
COc1ccccc1N1CCN(C(=O)CN(Cc2ccccc2)S(C)(=O)=O)CC1,i,1.7,7.5,0.71,9.2,6.1,-4%
COc1cccc(OC)c1C(=O)NC(=S)Nc1ccc2c(c1)OCCO2,i,4.1,2.9,0.72,-1.9,-1.8,13%
C[C@H](CO)N1C[C@H](C)[C@H](CN(C)C(=O)N[C@H](C)c2ccccc2)OCc2ccccc2-c2c(n(C)c3ccccc23)C1=O,i,·,-2.8,·,3.0,·,-5%
CCOC(=O)C(Cc1ccccc1)C1(C)Oc2ccccc2O1 (stereo not drawn),i,·,-0.3,·,-1.4,·,·
CCCCC(=O)NC(c1ccc(Cl)cc1)c1ccc2cccnc2c1O (stereo not drawn),i,·,0.1,·,-17,-3.4,7%
C=CCn1c(CC(=O)OC)csc1=Nc1ccc(C(C)=O)cc1,i,4.8,3.7,0.62,-12,-1.9,4%
CC(NC(=O)COC(=O)CNS(=O)(=O)/C=C/c1ccccc1)c1ccccc1 (stereo not drawn),i,4.2,-0.6,0.68,1.5,·,-10%
CC(C)Oc1ccc(C(=O)NC2CCS(=O)(=O)C2)cc1 (stereo not drawn),·,-2.4,0.2,0.77,·,-1.2,4%
O=C(Nc1ccc(-c2nc3cccnc3s2)cc1)c1ccc(Br)o1,i,-235,19,0.67,-1.7,-2.7,-19%
CCOC(=O)c1ccc(S(=O)(=O)N2CCN(CCc3ccncc3)CC2)cc1,i,2.5,-3.2,0.65,-3.1,·,·
O=C1NCCCC1C(=O)N/N=C/c1cc([N+](=O)[O-])ccc1O (stereo not drawn),i,·,1.3,·,-7.0,0.3,·
COc1cc(OC)cc(C(=O)N/N=C/c2ccc(OC)c(COc3ccc4ccccc4c3)c2)c1,·,·,-2.1,·,·,0.2,-2%
O=C1CC(N2CCN(Cc3ccc4c(c3)OCO4)CC2)C(=O)N1c1cccc2ccccc12 (stereo not drawn),i,0.4,2.1,0.68,1.4,?,-5%
O=C(CCNS(=O)(=O)c1ccccc1C(F)(F)F)NNC(=O)C1COc2ccccc2O1 (stereo not drawn),i,5.7,-2.8,0.68,-3.6,·,·
COc1ccc(-n2cnc3cc([N+](=O)[O-])ccc32)cc1,i,3.4,2.6,0.67,-2.6,?,13%
O=C(NCCSc1ccc(Br)cc1)c1ccc2nc[nH]c2c1,i,4.0,-2.0,0.7,-0.4,-0.6,·
O=S(=O)(Nc1ccc2cn[nH]c2c1)c1ccccc1,·,4.6,-1.2,0.72,2.0,?,13%
Cc1ccccc1C(=O)Nc1ccnn1C1CCN(C(=O)C2CCOC2)CC1 (stereo not drawn),i,-0.3,0.3,0.74,0.0,3.3,·
C=CCSc1nnc2nc3[nH]c4c(C)cccc4c3nn12,·,3.4,3.2,0.75,·,-3.5,7%
CCC(C)NC(=O)C(=O)NCC1CCCN1CC (stereo not drawn),i,0.2,-1.8,0.65,-1.7,3.8,·
CC1(C(=O)NS(=O)(=O)C2CC2)CCCN(C(=O)c2ccc(C(F)(F)F)cc2)C1 (stereo not drawn),i,·,-0.4,·,1.0,·,·
NC(=O)c1nsc(C(=O)N(CC(=O)NC2CCCC2)c2cnc3ccccc3c2)c1N,·,-1.3,·,0.66,·,?,·
COc1ccc(Cl)cc1C(=O)Nc1ccc(S(=O)(=O)N2CCCC2)cc1,·,2.4,-0.9,0.67,·,-0.2,-6%
COCc1cc(C)n(CC(=O)N2CCCC2)c(=O)c1C#N,·,-75,-1.6,0.69,·,-1.8,8%
COc1c(C)cc(S(=O)(=O)NC2CC(C)(C)NC(C)(C)C2)c(C)c1C,·,-1.3,1.4,0.7,·,-3.2,·

Compound activity: PubChem, several laboratories

These rows are one share of the data; count on the stated rates, not on these rows.
